Assay outcomes as filed in PubChem.
KCNQ2 pot = potentiators of rat KCNQ2 potassium channel; 310,000 compounds, 0.54% hits; CHO-K1 KCNQ2, FluxOR thallium flux fluorescence; active compounds read high; B-score at 10 µM;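 active = fluorescence ratio B-score at least 3 SD of library B-scores, with initial fluorescence B-score within 3 SD, cut at about 5.3 in these data; same plate scores as AID 2156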;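 note: B-score of peak minus minimum over baseline fluorescence ratio after K+ and Tl+ stimulus; positive B-score means potentiation of KCNQ2 with more thallium influx and brighter signal; only the inactives scoring about 0 or higher are listed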
Target sequence (O88943 whole entry, looked up): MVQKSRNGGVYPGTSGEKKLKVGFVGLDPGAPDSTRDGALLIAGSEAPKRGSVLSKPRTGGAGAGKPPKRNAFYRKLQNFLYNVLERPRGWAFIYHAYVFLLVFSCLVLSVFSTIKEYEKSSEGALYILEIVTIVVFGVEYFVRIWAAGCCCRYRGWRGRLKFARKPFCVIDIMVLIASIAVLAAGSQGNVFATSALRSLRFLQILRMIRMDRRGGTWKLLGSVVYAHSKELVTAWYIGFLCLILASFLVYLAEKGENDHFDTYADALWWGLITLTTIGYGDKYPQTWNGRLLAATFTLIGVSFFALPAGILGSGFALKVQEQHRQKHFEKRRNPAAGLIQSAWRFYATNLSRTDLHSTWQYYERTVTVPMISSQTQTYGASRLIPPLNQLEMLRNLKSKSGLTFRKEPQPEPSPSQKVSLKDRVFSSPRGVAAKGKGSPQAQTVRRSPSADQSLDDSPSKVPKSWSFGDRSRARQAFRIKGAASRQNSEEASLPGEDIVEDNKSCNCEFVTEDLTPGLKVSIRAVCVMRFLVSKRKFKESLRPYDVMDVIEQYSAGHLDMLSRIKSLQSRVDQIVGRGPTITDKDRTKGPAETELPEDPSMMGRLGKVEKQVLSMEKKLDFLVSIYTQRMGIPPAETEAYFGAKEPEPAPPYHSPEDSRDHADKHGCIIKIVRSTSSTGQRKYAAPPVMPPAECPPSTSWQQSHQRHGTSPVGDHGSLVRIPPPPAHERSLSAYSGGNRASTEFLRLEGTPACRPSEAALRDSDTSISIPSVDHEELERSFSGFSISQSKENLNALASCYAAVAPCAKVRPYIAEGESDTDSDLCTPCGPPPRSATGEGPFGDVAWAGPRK
KCNQ2 pot baseline = further read-out of KCNQ2 pot, marked with its call; B-score; compound at 10 µM; measured here: initial fluorescence intensity artifact check;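 brightness before thallium and not channel activity; 0 = typical well and far values either way flag optical interference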
An asterisk follows results filed as active. These rows are one share of the data; rates above refer to the full screens.

Under each structure: KCNQ2 pot	KCNQ2 pot baseline
1. CC1CC(=O)Nc2ccccc2N1S(=O)(=O)c1cccc(F)c1 (stereo not given)
  0.04	1.8
2. O=C(CN1CCOCC1)Nc1c2c(nc3c1CCC3)CCC2
  0.43	-0.7
3. Cc1onc(-c2ccccc2Cl)c1C(=O)N1CCN(S(=O)(=O)c2ccc(F)c(F)c2)CC1
  0.37	0
4. O=S(=O)(Cc1ccccc1)N1CCCC1
  0.85	2.2
5. Cc1ccc(C)c(Cn2c3ccccc3c3cnn(CC(=O)NCCN4CCOCC4)c(=O)c32)c1
  0.68	-0.17
6. O=C(CSC1=NS(=O)(=O)c2ccccc2N1)Nc1ccccc1F
  0.36	-2.5
7. Cc1ccc(Cn2ncc3c(N4CCN(C)CC4)ncnc32)cc1
  1.2	-1
8. CC(C)c1nnc(NC(=O)CSc2nc3ccccc3[nH]2)s1
  1.8	-0.84
9. OC(c1ccc(Cl)cc1)c1nccc2ccccc12 (stereo not given)
  0.16	0.34
10. COc1cc(Cl)c(C)cc1NC(=O)CSC
  0.22	2.8

Reprinted at random: 4 records from the list, in no set order.
Under each structure: KCNQ2 pot	KCNQ2 pot baseline
5. Cc1ccc(C)c(Cn2c3ccccc3c3cnn(CC(=O)NCCN4CCOCC4)c(=O)c32)c1
  0.68	-0.17
2. O=C(CN1CCOCC1)Nc1c2c(nc3c1CCC3)CCC2
  0.43	-0.7
9. OC(c1ccc(Cl)cc1)c1nccc2ccccc12 (stereo not given)
  0.16	0.34
6. O=C(CSC1=NS(=O)(=O)c2ccccc2N1)Nc1ccccc1F
  0.36	-2.5

Returning to the listing; the 3 compounds before the break are reprinted first.
Under each structure: KCNQ2 pot	KCNQ2 pot baseline
8. CC(C)c1nnc(NC(=O)CSc2nc3ccccc3[nH]2)s1
  1.8	-0.84
9. OC(c1ccc(Cl)cc1)c1nccc2ccccc12 (stereo not given)
  0.16	0.34
10. COc1cc(Cl)c(C)cc1NC(=O)CSC
  0.22	2.8
11. CCOC(=O)N1CCN(CCC(=O)Nc2ccc(F)c(F)c2)CC1
  0.5	-0.27
12. O=C(CC1CCCCC1)NCCS(=O)(=O)N1CCN(c2ccccc2)CC1
  0.82	-0.22
13. COC(=O)CCCC1=CC2=C(c3ccccc3)C(=O)C(C)(OC(=O)C3CCCC3)C(=O)C2=CN1CCc1c[nH]c2ccccc12 (stereo not given)
  0.34	0.63
14. COc1cc(SC)ccc1C(=O)Nc1ccc(Cl)cn1
  0.02	1.1
15. C#CCOCCOCCOCCNc1nc(N2CCOCC2)nc(N2CCN(C(=O)[C@H](CCC(=O)O)n3cc(C(N)[C@H](C)CC)nn3)CC2)n1 (stereo not given in full)
  1.3	-0.04
16. CCC(=NCc1ccc(Cl)c(Cl)c1)c1nc(-c2ccco2)oc1O
  0.06	0.92
17. Cc1ccc(N(CCC(=O)O)S(=O)(=O)c2ccc(C)cc2)cc1
  0.4	0.41
18. Cc1nc2ccccc2n1CC(=O)OCC(=O)NCc1ccccc1
  1	1.1
19. CCCS(=O)(=O)c1c(S(=O)(=O)CCC)c2c(C)cccn2c1C(=O)OC
  3.8	-0.82
20. COc1ccccc1OCc1ccc(C(=O)Nc2ccncc2)o1
  0.86	-2.8
21. NS(=O)(=O)c1ccc(CNC(=O)/C=C/c2cccc(Cl)c2)cc1
  0.62	-0.82
22. Cc1ccc(C)c(NC(=S)N2CCN(c3ccccn3)CC2)c1
  1.4	0.42
23. COc1cc(/C=N/NC(=O)c2cccnc2)cc2c1OCO2
  1.1	-0.67
24. COc1ccc(OCCCC(=O)Nc2cc(Cl)ccc2-n2cncn2)cc1
  0.01	0.02
25. Cc1ccc(C(=O)COc2ncnc3cc(Cl)ccc23)cc1
  0.67	0.56
26. CCC(c1nnnn1C1CCCCC1)N1CCN(C(=O)c2ccco2)CC1 (stereo not given)
  0.48	-0.05
27. CCCN(CCC)CC(O)COc1ccc2c(c1)OCO2 (stereo not given)
  0.77	0.71
28. O=C(Nc1nn(Cc2ccc(Cl)cc2)cc1Br)c1ccc(COc2ccccc2Cl)o1
  0.33	-1.5
29. O=C(CCc1nnc(COc2ccccc2)o1)NCc1ccccc1
  2	-0.11
30. O=C(NCCN1CCOCC1)c1cccn2c(=O)c3c4c(sc3nc12)CCCC4
  2.8	-0.34
31. COc1cccc2cc(-c3nnc(SCC(=O)Nc4ccc(NC(C)=O)cc4)n3C)oc12
  0.32	-0.3
32. Cc1cc(C)c2c(c1)c1nnc(SCCN3CCOCC3)nc1n2C
  1.5	-0.27
33. COc1ccc(NC(=O)c2cc3c(=O)n(C)c4ccccc4c3s2)cc1OC
  0.93	0.55
34. O=C1CCCN1CCC(=O)N1CCCC(N2CCN(c3ccccc3F)CC2)C1 (stereo not given)
  0.06	3.4
35. CCCCc1nc(Cl)c(C#N)c2c1CCCC2
  0.01	1
36. COc1ccc(N2CCN(CCNC(=O)CCS(=O)(=O)c3cccc4nsnc34)CC2)cc1
  0.89	-0.37
37. CCOC(=O)CSc1nc2cc(C(=O)NCC3CCCO3)ccc2c(=O)n1Cc1ccco1 (stereo not given)
  0.67	0
38. CCC(=O)N(Cc1cc(=O)[nH]c2ccccc12)c1ccc(C)cc1C
  0.76	-1.2
39. CC(=O)Nc1c(C(=O)N2CCOCC2)cnn1-c1ccc(C)c(C)c1
  0.02	-1.6
40. COc1cc(NC(=O)CN(C)S(=O)(=O)c2ccc3c(c2)CC(C)N3C(C)=O)cc(OC)c1 (stereo not given)
  0.68	-1.1
41. Cc1ccc(C(=O)CC2SC(N)=NC2=O)cc1 (stereo not given)
  1.4	1.2
42. Cc1ccc(SCCC(=O)N2CCC(C(N)=O)CC2)cc1
  0.55	-0.67
43. Cc1ccc(-n2c(C)cc(C(=O)CSc3n[nH]c(N)n3)c2C)cc1
  0.01	-0.67
44. CC(C)[C@H](NC(=O)c1ccco1)C(=O)OCC(=O)Nc1ccc(F)cc1
  0.08	0
45. Cn1ncc2c(N3CCN(c4ccc(Cl)c(Cl)c4)CC3)ncnc21
  0.93	-0.5
46. Cc1cc2ccccc2n1CCNC(=O)c1ccc(S(=O)(=O)N2CCOCC2)cc1
  0.81	-1.1
47. CCOC(=O)C1(C)C=C(Nc2ccc(OCC)cc2)C(=O)N1c1ccccc1 (stereo not given)
  0.64	0.9
48. CCCCN1CC[C@H]2C=CC[C@@H](C(=O)Nc3nccs3)[C@H]2C1=O
  0.39	0.94
49. C=CCNC(=O)c1cc(Cl)ccc1Cl
  0.95	-0.72
50. CCc1ccc(NC(=O)CSc2nnc(SCC(=O)Nc3ccc(CC)cc3)n2N)cc1
  0.37	0.88
51. COc1ccc(C/C(C)=N/Nc2nc(C)cc(=O)[nH]2)cc1
  1.1	1.5
52. O=C(NCCCc1ccccc1)Nc1ccccc1
  2.5	0.23
53. COc1ccc(C(=O)N/C(=C\c2cn(S(=O)(=O)N(C)C)c3ccccc23)C(=O)NCCN2CCOCC2)cc1
  1.2	1.7
54. COCc1nnc(NC(=O)CSc2ccccc2)s1
  0.48	0.47
55. FC(F)Sc1ccc(NC2=NCCCCC2)cc1
  1.5	1.2
56. CCOC(=O)C1CCCN(c2c(NCCCN(C)c3ccccc3)c(=O)c2=O)C1 (stereo not given)
  0.37	-1
57. NS(=O)(=O)c1cccc(NC(=O)CCC(=O)c2cccs2)c1
  1.6	1.9
58. O=C(Cn1c2ccccc2c2nc3n(c(=O)c21)CCS3)N1CCCC1
  1	-0.25
59. O=C(NCCc1ccccc1)C1CCC(CNS(=O)(=O)c2cccs2)CC1 (stereo not given)
  1.1	-0.07
60. Cc1ccc2nc(SCC(=O)Nc3ccc4c(c3)CCC4)[nH]c2c1
  1.4	0.8

New compounds follow
Under each structure: KCNQ2 pot	KCNQ2 pot baseline
61. O=C(CSc1nnc(CNC(=O)c2c(F)cccc2Cl)o1)NC1CCCC1
  0.96	0.78
62. Cc1occc1C(=O)Nc1cccc([N+](=O)[O-])c1
  1.3	-0.03
63. Fc1ccc(-c2nc3n(n2)Cc2ccccc2-3)cc1
  0.17	-0.03
64. COCCOc1ccc(C(F)(F)F)cc1NC(=O)c1ccc(C(F)(F)F)cc1
  0.54	0.02
65. O=C(COc1ccc(Cl)cc1Cl)NNC(=O)c1cccnc1
  0.38	1.6
66. C[C@@H]1NC(=O)[C@H](CCC(=O)O)NC(=O)c2cc([N+](=O)[O-])cc(F)c2NCCC[C@@H](C(N)=O)NC1=O
  0.2	0.59
67. CCC(NC(=O)Nc1ncccc1C)(C(F)(F)F)C(F)(F)F
  0.11	-2.9
68. Cc1ccc(C(=O)Nc2ccccc2C(=O)N2CCOCC2)cc1[N+](=O)[O-]
  0.06	-1.2
69. CC(C)C(=O)Nc1nc2c(ncn2C2CC(O)C(CO)O2)c(=O)[nH]1 (stereo not given)
  2.6	-0.23
70. O=C(Nc1ccccc1)N1CCN(c2nc(-c3ccccc3)ns2)CC1
  1.2	-0.36
71. O=C(NNC(=O)c1cccnc1)Nc1cccc(Cl)c1Cl
  1.8	-0.39
72. CC(=O)c1cccc(N(C(=O)CNC(=O)c2ccco2)C(C(=O)NC2CCCC2)c2ccc(C)o2)c1 (stereo not given)
  0.22	-0.26
73. CCCCn1c(NC(=O)c2ccccc2Cl)c(C#N)c2nc3ccccc3nc21
  1.4	-0.02
74. COCCN(Cc1nc(-c2ccc(C(F)(F)F)cc2)no1)C(C)C
  0.06	0.28
75. COC(=O)c1[nH]nc2c1C(=O)N(Cc1ccccc1)C2=O
  0.57	-1.2
76. Cc1n[nH]c(C)c1Sc1ccccc1[N+](=O)[O-]
  2.2	1.4
77. O=C(CNC1CCCCC1)NCC1(c2ccccc2)CCCC1
  2	0.54
78. Cc1cc(=O)[nH]c(SCCCOc2ccc3c(c2)CCC3)n1
  0.46	0
79. CCn1cc(CN2CCCC(CNS(=O)(=O)c3ccc(OC)cc3)C2)cn1 (stereo not given)
  1.9	-0.12
80. COc1cccc(CN2CCNC(=O)C2CC(=O)NCCc2nc(C)c(C)s2)c1OC (stereo not given)
  0.06	0
81. CCOC(=O)c1nnc2c(Br)c(-c3ccccc3)nn2c1C
  0.78	1.1
82. Cc1cccc(CNc2ccc(C(CC(N)=O)NC(=O)Cc3cccc4ccccc34)cc2[N+](=O)[O-])c1 (stereo not given)
  0.86	-0.06
83. CN(C)c1ccc(-c2nn3c(-c4cccnc4)nnc3s2)cc1
  2.2	-0.39
84. CCc1ccc(C2=NN(CCC(=O)NC3CC3)C(=O)CC2)cc1
  1	-1.3
85. O=c1oc2cc(Oc3ccc(C(F)(F)F)cc3[N+](=O)[O-])ccc2c2c1CCC2
  1.2	-0.99
86. Cc1ccc(OCCOCCn2ccnc2)c(Br)c1
  0.02	1.3
87. c1ccc(OCc2nn3c(-c4n[nH]c5c4CCC5)nnc3s2)cc1
  0.56	0.02
88. CCOc1ccc(OCC)c(NC(=O)c2ccc(CNc3c(N4CCCC4)c(=O)c3=O)cc2)c1
  1.1	-0.02
89. O=C(CN1CCCC1)OCCCc1ccccc1
  0.7	-1.2
90. Clc1ccccc1-c1nc(N/N=C/c2cccnc2)c2ccccc2n1
  0.61	0.65
91. COc1ccc(N2CCN(C(=O)CCCCCn3c(=O)[nH]c4ccsc4c3=O)CC2)cc1
  1.3	-0.67
92. COc1ccc(-n2c(C)c([N+](=O)[O-])c3ccc(O)c(CN4CCCCC4)c32)cc1
  0.23	-1.2
93. O=C(/C=C/c1ccco1)Oc1ccc(C(=S)N2CCOCC2)cc1
  0.01	-1.9
94. O=C(Nc1ccc(Cc2ccncc2)cc1)C1CCC(N2C(=O)C3C4C=CC(C5CC45)C3C2=O)CC1 (stereo not given)
  0.34	0.62
95. CC1CCCCC1NC(=O)COC(=O)c1cc(=O)c2ccccc2o1 (stereo not given)
  0.44	2
96. Cc1ccc(C(=O)C2=C(O)C(=O)N(CC3CCCO3)C2c2ccccc2F)o1 (stereo not given)
  0.88	1.4
97. Cc1cc(N/C=C\c2nnnn2-c2ccc(F)cc2)no1
  0.15	0
98. c1ccc(Cn2nnnc2C(c2cccnc2)N2CCN(c3ccccc3)CC2)cc1 (stereo not given)
  0.35	0.03
99. O=c1cc(-c2ccccc2)nc(SCc2ccccc2)[nH]1
  2.2	-1
100. C/C(=N\NC(=O)c1nnn(-c2nonc2N)c1-c1cccs1)c1ccncc1
  0.01	0.87
101. OCCNCCCCCOc1ccc(F)cc1
  0.42	-0.03
102. Clc1ccc(-c2nnc(NCCN3CCCC3)c3ccccc23)cc1
  2	0.53
103. CCC1CCc2sc(C(=O)N(C)CC(=O)Nc3ccc(OC)cc3)cc2C1 (stereo not given)
  0.65	-2.1
104. CC(C)CN(C(=O)COC(=O)c1c2c(nc3ccccc13)CCC2)c1c(N)n(Cc2ccccc2)c(=O)[nH]c1=O
  0.02	-1.6
105. CCOC(=O)C1=C(O)C(=O)N(Cc2ccc(C(C)(C)C)cc2)CC1
  0.27	1.8
106. CSc1ccccc1OCc1cc(C(=O)N2CCNC(=O)C2)no1
  0.57	-0.07
107. CC(CN1C(C)CCCC1C)OC(=O)c1ccc(Cl)cc1Cl (stereo not given)
  0.18	-0.32
108. CN(C)CCCN(C(=O)c1cccs1)c1nc2cc3c(cc2s1)OCO3
  0.85	-1.2
109. COC(=O)CCN(C(=O)c1ccc([N+](=O)[O-])cc1)c1ccccn1
  0.1	-0.2
110. Cc1ccc(NC(=O)Cn2c(-c3ccc(F)cc3)cnc2SCC(=O)Nc2c(C)cccc2C)cc1
  1	1.3

Next part
Under each structure: KCNQ2 pot	KCNQ2 pot baseline
111. O=[N+]([O-])c1ccc(S(=O)(=O)Nc2ccc(S(=O)(=O)N3CCCC3)cc2)cc1
  3.2	-0.42
112. C/C(=N\NC(=O)C1CCCC1)c1ccc(C(C)C)cc1
  1.8	-0.45
113. CSc1nnc(C(C)(C)C)c(=O)n1/N=C/c1ccccc1O
  0.54	-0.05
114. COc1ccc(-c2noc(CNC(=O)c3ccc4c(c3)OCO4)n2)cc1OC
  0.01	-0.2
115. COc1ccc(C(=O)NCCNc2nc3cc(C)c(C)cc3cc2C)cc1
  1.2	-0.01
116. Cc1nn(C)c(-c2n[nH]c(=S)n2Cc2ccco2)c1Cl
  1.5	-1.2
